# MgrA DNA FP: alters Staphylococcus aureus MgrA binding to DNA | hit rate 0.13% among 84,000 | AID 602314 | fluorescence polarization | inhibition, %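 (about 10 µg/mL by stock and volumes)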;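 active = above 50% in either of two replicates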;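 note: 0% = protein plus DNA without compound and 100% = DNA alone without protein; higher means less MgrA bound to DNA so lower polarization; one replicate is shown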
# Sa helicase inh: S. aureus DNA helicase inhibition; purified S. aureus helicase, fluorescence unwinding assay; about half of the hits fall short of the stated cut; AID 485395; hit rate 0.05% among 120,000; inhibition, %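 (tested at about 80 µM)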;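 active = both duplicates at 50% or more, or one of them with a favoured structure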;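 note: 0% = mean of negative control wells and 100% = mean of positive control wells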
# * = called active by the depositor; nt = no result given; & = joins results of further samples. This is a subset; rates above refer to the full screens.
# Start of the data: the first 4 records (preview)
SMILES,MgrA DNA FP,Sa helicase inh
O=C(COCC(=O)c1ccccc1)Sc1nc2ccccc2s1,-2.5,5
CCNC(=S)N1CCCCC1CO (configuration not stated),0.8,9
COc1ccc(-c2cn3c(C)c(C(=O)N4CCCc5ccccc54)sc3n2)cc1,nt,-1
O=C(OCc1cccc(COC(=O)c2ccc(Cl)cc2)n1)c1ccc(Cl)cc1,3.9,4

# The list itself (from the top)
SMILES,MgrA DNA FP,Sa helicase inh
O=C(COCC(=O)c1ccccc1)Sc1nc2ccccc2s1,-2.5,5
CCNC(=S)N1CCCCC1CO (configuration not stated),0.8,9
COc1ccc(-c2cn3c(C)c(C(=O)N4CCCc5ccccc54)sc3n2)cc1,nt,-1
O=C(OCc1cccc(COC(=O)c2ccc(Cl)cc2)n1)c1ccc(Cl)cc1,3.9,4
O=C1c2cccc(OCC(=O)N3CCCc4ccccc43)c2CCN1Cc1cccnc1,nt,6
NS(=O)(=O)c1ccc(Nc2nc3sc4c(c3c(=O)s2)CCCC4)cc1,nt,8
Cc1ccccc1OCCSc1nc(C(C)C)cc(=O)[nH]1,-0.2,13
CC(=O)Nc1ccc2c(c1)nc(C)n2C,-3.6,0
Cc1cccc(-n2ccnc2SCC(=O)N2CCN(C(=O)C3COc4ccccc4O3)CC2)c1 (configuration not stated),nt,-6
Cc1ccc2cc3c(N)[nH]nc3nc2c1,-1.1,7
COc1ccc(N)cn1,10,-197
CCCOc1ccc(/C=N/NC(=O)CN2CCCCC2)cc1,3.7,2
CCc1ccc(NC(=O)CN(c2ccccc2)S(=O)(=O)N(C)C)cc1,3.2,9
Nc1c(-c2ccc(Cl)cc2)nnn1-c1ccccc1,nt,-16
C[C@]12CC=CCC1CCC1C2CC[C@](C)(C(=O)O)C1/C=C1/Nc2ccccc2C1=O (some centres not stated),26,nt
O=C(CSc1ccc(Cl)cc1)Nc1cccc(-c2nc3ncccc3o2)c1,nt,12
CC1CCCCC1NC(=O)CSc1nnc(-c2ccccc2Br)o1 (configuration not stated),nt,-5
Cc1cc(N)n(C(C)(C)C)n1,4.3,4&10
O=C(O)CCc1ccc(Br)cc1,nt,13
COc1ccc(OC)c(C(=O)Nc2ccc(F)c(Cl)c2)c1,-3.0,nt
Cc1cccc(OCC(=O)NCC(C)C)c1C,1.1,-6
CC1(C)C2CCC1(CS(=O)(=O)NC1CCCC1)C(=O)C2 (configuration not stated),-0.3,-1
CC(C)(C)c1cc2nc3c(c(=O)n2[nH]1)CN(C1CCCCC1)C3=O,-2.1,nt
CCOc1ccc2nc(Cl)c(CN(Cc3ccco3)C(=O)c3ccco3)cc2c1,4.9,1
Nc1sc2c(c1C(=O)N1CCOCC1)CCCC2,nt,-39
O=C(NCc1ccccc1)c1cccc(OCC(=O)N2CCOCC2)c1,nt,8
CCN(CC)C(=O)COc1ccc2c(c1)C(=O)CC(C)(C)O2,-1.9,1
CCOC(=O)c1c(-c2ccccc2)cn2c1SCC2=O,nt,-1
COC(=O)c1scc(C)c1NC(=O)C(C)Sc1nc(C)cc(C)c1C#N (configuration not stated),nt,7
CCc1cccc(C)c1NC1=NCCC(=O)S1,-2.2,nt
CN(Cc1ccccc1)c1nnnn1-c1ccccc1,nt,-3
CCc1c(C#N)c(N)nc2sc(C(=O)OCc3ccccc3)c(N)c12,3.8,-7
Clc1ccc(Sc2nc(-c3cccs3)ns2)cc1,-1.1,nt
CCC(C)NC(=O)COc1cc(=O)n(C)c2ccccc12 (configuration not stated),nt,4
Cc1ccc(C(=O)c2cnc3ccccc3c2N2CCCC2)cc1,0.9,15
COc1ccccc1Nc1nc2c(S(=O)(=O)c3c(C)cc(C)cc3C)nnn2c2ccccc12,-0.2,-18
CCOc1ccc(N=c2scc(-c3ccc(S(=O)(=O)N4CCCCC4)cc3)n2CCCO)cc1,nt,-21
C=CCN1C(=O)NC(NC(=O)c2ccccc2)(C(F)(F)F)C1=O (configuration not stated),-1.8,-1
O=C(O)Cn1c(=S)sc2ccccc21,nt,25
C=CCN1C(=O)C2C(C(=O)NCc3ccccc3)C3C=CC2(O3)C1C(=O)NC1CCCC1 (configuration not stated),-0.1,-1
Fc1ccc(CN2CCCN(Cc3ccc(F)cc3)C2c2cccs2)cc1,-2.5,nt
CCCc1cc(C(=O)Nc2ccc(C)cc2)no1,nt,12
Cc1cccc(NC(=O)CCNS(=O)(=O)c2ccc3[nH]c(=O)oc3c2)c1,nt,13
COc1ccccc1-c1nnc(C2CCN(C(=O)c3ccccc3)CC2)o1,11,6
CCOC(=O)C1=NN(c2ccc(C)cc2)CC1C(=O)OC (configuration not stated),-3.5,17
S=C(NCCc1ccncc1)Nc1cc(Cl)ccc1Cl,1.5,nt
COc1ccccc1N1CC(C(=O)Nc2nc(C)cs2)CC1=O (configuration not stated),nt,-16
CCOc1cc(S(=O)(=O)NCCOC)c(OCC)cc1C,-2.9,1
Cc1cc(C)c2c(=O)[nH]c(SCC(=O)NCCc3ccccc3)nc2n1,-0.4,-3
CCC(C)NC(=O)C1CCN(Cc2cc(OC)ccc2OC)CC1 (configuration not stated),-0.5,3
O=C(Cn1ncc2c([nH]c3ccccc32)c1=O)NCCc1ccsc1,nt,-27
Cc1[nH]c2ccc(CN)cc2c1C,nt,8
CC1CC(C)CN(C(=O)c2ccco2)C1 (configuration not stated),-1.3,14
Cc1cc(-c2nc(C(=O)N3CCCCC3)cs2)no1,-2.6,nt
Cc1[nH]c2ccccc2c1C(=O)CSc1nc2ccccc2o1,nt,10
O=C(/C=C/c1ccc2c(c1)OCO2)N1CCN(CCN2C(=O)c3cccc4cccc(c34)C2=O)CC1,1.7,nt
CC(=O)NCc1c(I)c(NC(C)=O)c(I)c(C(=O)O)c1I,-0.1,nt
CC(Sc1nnc(C2CCCCC2)n1N)C(=O)NC(N)=O (configuration not stated),nt,-10
O=[N+]([O-])c1cccnc1Oc1ccc(Cl)cc1,0.1,nt
CCCc1cc(C2C(C#N)=C(N)Nc3oc(OC)nc32)ccc1OC(C)C (configuration not stated),-0.2,15
# Further records follow:
SMILES,MgrA DNA FP,Sa helicase inh
N#Cc1cccc(NC(=O)C2SC(=NCc3ccco3)C(C(=O)N3CCCC3)=C2N)c1 (configuration not stated),nt,-5
Cc1ccc2c(c1)-c1c(cnn1CC(=O)NCCc1ccc(S(N)(=O)=O)cc1)CO2,nt,-17
CCN(CC(=O)Nc1ccc(N2CCOCC2)cc1)C(=O)c1nc2nccc(C)n2n1,nt,-6
Cc1ccccc1NC(=O)/C=N/O,-4.0,-2
COc1cccc(-c2cc(C#N)on2)c1OC,-0.1,18
COc1ccc(/C=C/C#N)cc1OC,1.2,-1
COC(=O)Nc1ccc(S(=O)(=O)NCC(OC)OC)cc1,nt,-2
O=S(=O)(c1ccc(Cl)cc1)N1c2ccccc2Sc2ccc(C(F)(F)F)cc21,-0.1,5
CCOC(=O)c1ccc(-c2c(C(=O)OCC)oc3cc(O)c(CC)cc3c2=O)o1,nt,-26
O=C(NCc1ccc2c(c1)OCO2)c1ccc2c(=O)n3c(nc2c1)CCCCC3,nt,5
CCCCOc1ccc(OCCCC)c2c1nc(-c1ccccc1N)c(=O)n2C,-1.4,nt
CN1CCCN(C(=O)/C=C/c2ccc(Cl)cc2Cl)CC1,1.2,13
COc1ccc(CN=Cc2ccc(NC(C)=O)cc2)cc1,-0.2,nt
CCOC(=O)c1ccc(NC(=O)C2C(=O)N(C)C3(C)CC2c2ccccc2O3)cc1 (configuration not stated),1.6,11
O=C(OCC(=O)N1CCCc2ccccc21)C1COc2ccccc2O1 (configuration not stated),nt,9
CCOc1cc(C)c2c(=O)c(-c3ccccn3)c(C)oc2c1,1.5,-26
CCOc1ccccc1C(=O)NCCc1cc2ccc(C)c(C)c2[nH]c1=O,nt,-21
Cc1cccc(-c2nc(CSc3nc4ccncc4[nH]3)c(C)o2)c1,nt,7
COc1ccc(Cl)cc1NC(=O)c1nc2nc(-c3ccccc3)cc(C(F)(F)F)n2n1,1.4,7
O=C(COC(=O)CCN1C(=O)C2CC=CCC2C1=O)Nc1cc(Cl)cc(Cl)c1 (configuration not stated),nt,2
COC(=O)c1ccc(N2CCCC2=O)cc1,0.5,5
O=C1CSC(c2ccc3c(c2)OCO3)N1c1ccc(Cl)cc1 (configuration not stated),6.1,10
Cc1cc(C)n2c(SCCC(C)C)nnc2n1,-0.5,-12
Cc1cc(/C=C2\C(=O)NC(=S)N(C)C2=O)c(C)n1C1CC1,6.8,-13
CCn1c(C(=O)Nc2ccc(C(C)C)cc2)cc2sc(Cl)cc21,nt,10
O=C(CN1C(=O)/C(=C/c2ccccc2)SC1=S)OC1CCCCC1,nt,-16
C=CCn1c(-c2ccccc2)nn(CN2CC(C)OC(C)C2)c1=S (configuration not stated),5.2,17
Cc1nc(-c2ccc3c(c2)CCN3Cc2nnc(-c3ccco3)o2)cs1,nt,-10
O=C(c1ccc(F)cc1)n1nccc1-c1csc(-c2ccccc2)n1,-0.2,nt
COc1ccc(N2CCN(C(=S)C3CCCCC3)CC2)cc1,nt,-9

# Record cards, as listed above:
# Listed for `COC(=O)c1scc(C)c1NC(=O)C(C)Sc1nc(C)cc(C)c1C#N` (configuration not stated) = MgrA DNA FP: nt; Sa helicase inh: 7
# Listed for `CCOc1ccccc1C(=O)NCCc1cc2ccc(C)c(C)c2[nH]c1=O` = MgrA DNA FP: nt; Sa helicase inh: -21
# Listed for `CCOC(=O)c1ccc(NC(=O)C2C(=O)N(C)C3(C)CC2c2ccccc2O3)cc1` (configuration not stated) = MgrA DNA FP: 1.6; Sa helicase inh: 11

# Next section:
SMILES,MgrA DNA FP,Sa helicase inh
FC(F)(F)c1nc2ccccc2n1CCOc1ccccc1,0.6,3
Cc1ccc(NC(=O)C2CC(=O)N(Cc3ccco3)C2)cc1 (configuration not stated),0.2,nt
CN(CC(=O)Nc1ccc(Cl)cc1)C(=O)c1ccc(OC(F)F)cc1,nt,4
O=C(CN1CCN(S(=O)(=O)N2CCCCC2)CC1)Nc1ccc(Br)cc1,nt,-18
CCN(C(=O)c1ccc2c(SCC(=O)O)c3c(nc2c1)CCC3)c1ccccc1C,nt,10
N#Cc1ccc(OCn2nnc3ccccc3c2=O)cc1,nt,12
COc1cc(OC)nc(NC(=O)CSc2nc3ccccc3s2)n1,1.2,9
COc1ccc(C(CNC(=O)Nc2ccccc2)N2CCN(C)CC2)cc1 (configuration not stated),nt,12
CCC1CCCCN1C(=O)c1ccc(OC)cc1 (configuration not stated),0.8,12
CC(C)CC(NS(=O)(=O)c1cccs1)C(=O)O (configuration not stated),-0.6,12
O=C(CS(=O)(=O)c1ccccc1)N1CCc2ccccc21,-0.1,5
COc1cccc(CNC(=O)CN(C)S(=O)(=O)c2ccc3c(c2)n(C)c(=O)c(=O)n3C)c1,nt,17
Cn1c(CC2Sc3ccccc3NC2=O)nnc1SCC(=O)c1ccccc1 (configuration not stated),-0.8,nt
COc1cc(C(=O)N2CCN(C(=O)Cc3ccccc3)CC2)cc(OC)c1OC,1.2,-13
Fc1ccc(-c2cc3c(nn2)Nc2ccccc2N3)cc1,nt,-3
Cc1cc2c(NC(=O)CCCC(=O)O)cccc2nn1,-0.9,nt
O=C(NC1C2CCCC1CN(C1CC1)C2)c1ccc(Cl)cc1 (configuration not stated),0.5,9
NC(=O)C1CCN(CC(O)c2ccccc2)CC1 (configuration not stated),-1.8,nt
NC(=O)C1CCN(C(=O)C2CC(c3ccccc3Cl)=NO2)CC1 (configuration not stated),nt,12
CC1CC(C)(C)NC(=S)N1CCC(=O)Nc1ccc2c(c1)OCCO2 (configuration not stated),-2.6,-5
COC(CNC(=O)c1cc(-c2ccccn2)nc2ccc(S(=O)(=O)N3CCC(C)CC3)cc12)OC,-0.3,7
CC(=O)Nc1ccc(S(=O)(=O)N(c2ccccc2C(F)(F)F)S(=O)(=O)c2ccc(NC(C)=O)cc2)cc1,-1.2,nt
CN(C)c1ccc(C(CNC(=O)CSc2nnc(-c3ccc(F)cc3)o2)c2c[nH]c3ccccc23)cc1 (configuration not stated),nt,7
O=c1[nH]c2ccc(F)cc2c(O)c1-c1ccccc1,0.2,nt
CCOC(=O)c1c(C)oc2c1c(CN1CCN(CC)CC1)c(O)c1ccccc12,nt,3
COc1c(C)cccc1C(=O)Nc1cc(Cl)ccc1N1CCOCC1,1.1,-15
CC(NC(=O)C1CCN(c2ncccn2)CC1)c1ccncc1 (configuration not stated),nt,3
CC(C)(C)C(O)CSc1nc2ccccc2[nH]1 (configuration not stated),nt,13
COCCNC(=O)c1nc(Nc2ccc(F)cc2F)c2ccccc2n1,nt,-15
CC(C)CCNC(=O)c1ccc2nc(-c3cccs3)c(-c3cccs3)nc2c1,-0.5,6

# By substructure: those above with a tert-butyl group.
SMILES,MgrA DNA FP,Sa helicase inh
Cc1cc(N)n(C(C)(C)C)n1,4.3,4&10
CC(C)(C)c1cc2nc3c(c(=O)n2[nH]1)CN(C1CCCCC1)C3=O,-2.1,nt
CC(C)(C)C(O)CSc1nc2ccccc2[nH]1 (configuration not stated),nt,13

# Additional structures follow.
SMILES,MgrA DNA FP,Sa helicase inh
CCCCC1(COC(=O)CCC(=O)O)C(=O)N(c2ccccc2)N(c2ccccc2)C1=O,2.5&1.1,nt
CC1CCN(c2nc3ccccc3nc2C(C#N)S(=O)(=O)c2cccc(Cl)c2)CC1 (configuration not stated),nt,-24
c1ccc(C2CCC(NCCN3CCOCC3)CC2)cc1 (configuration not stated),-0.6,9
Cc1cc(C)c2sc(N3CCN(C(=O)C(C)(C)C)CC3)nc2c1,nt,6
Cc1cccc(C(=O)Nc2nc3ccc(C)cc3c(=O)[nH]2)c1,nt,-7
Cc1ccc(-c2cc(C(=O)N3CCCCC3C)c3ccccc3n2)cc1 (configuration not stated),-0.6,-1

# Screening results: PubChem BioAssay, ICCB-Longwood Screening Facility, Harvard Medical School
